Screening results: PubChem BioAssay, Broad Institute
rRNA inh HTS: reduced GFP signal of wild-type E. coli, primary screen, bacterial rRNA inhibitor project, GFP/RFP fluorescence, OD600, single point; E. coli WT GFP vs humanized-ribosome RFP mutants, 24 h; stronger effect = lower value; DMSO median 0, no signal -100; GFP signal change (wild-type ribosome), % (concentration not given with the values); 350,000 tested, 1.6% active;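 active means significant combined selectivity score with lowered wild-type GFP, culture density cut under 30%, mutant RFP and density less affected; inactive means any of these conditions unmet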; further: one replicate is shown; some compounds called inactive have numbers as strong as hits
FGF22 binding: binders of human FGF22 protein, primary screen, FGF22 synaptogenesis inhibitor project, biophysical, thermal shift, single point. AID 651658, 2012. Fibroblast growth factor 22 (Homo sapiens), Q9HCT0. calls only at 9.99 µM. recombinant FGF22 thermal shift, SYPRO orange fluorescence; percent of sucrose octasulfate shift, DMSO zero. 340,000 tested, 1.5% active;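 active means melting point raised past a set limit in the mean and every replicate; three in four hits are not shown here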
Target sequence (Q9HCT0 whole entry, looked up): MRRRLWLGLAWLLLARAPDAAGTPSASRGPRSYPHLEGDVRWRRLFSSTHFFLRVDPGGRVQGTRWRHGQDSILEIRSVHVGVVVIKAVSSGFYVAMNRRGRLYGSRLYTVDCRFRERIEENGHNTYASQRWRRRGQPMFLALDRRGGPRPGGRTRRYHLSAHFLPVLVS
MLL AF4-AF9 inh: inhibitors of AF4 peptide binding to AF9, primary screen, biochemical, AlphaScreen, biotin-AF4 peptide, FLAG-AF9, single point; Protein AF-9 (Homo sapiens), P42568; AID 651704, 2012; 350,000 tested, 0.47% active; inhibition, % at 10 µM;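 active means every replicate reaching a set inhibition limit, whatever the replicate mean, cut at about 25% in these data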;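 further: 0% = plate neutral control median and 100% = total signal loss; the record names both 10 and 1 µM as test concentration; the first replicate is given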
Target sequence (P42568 whole entry, looked up): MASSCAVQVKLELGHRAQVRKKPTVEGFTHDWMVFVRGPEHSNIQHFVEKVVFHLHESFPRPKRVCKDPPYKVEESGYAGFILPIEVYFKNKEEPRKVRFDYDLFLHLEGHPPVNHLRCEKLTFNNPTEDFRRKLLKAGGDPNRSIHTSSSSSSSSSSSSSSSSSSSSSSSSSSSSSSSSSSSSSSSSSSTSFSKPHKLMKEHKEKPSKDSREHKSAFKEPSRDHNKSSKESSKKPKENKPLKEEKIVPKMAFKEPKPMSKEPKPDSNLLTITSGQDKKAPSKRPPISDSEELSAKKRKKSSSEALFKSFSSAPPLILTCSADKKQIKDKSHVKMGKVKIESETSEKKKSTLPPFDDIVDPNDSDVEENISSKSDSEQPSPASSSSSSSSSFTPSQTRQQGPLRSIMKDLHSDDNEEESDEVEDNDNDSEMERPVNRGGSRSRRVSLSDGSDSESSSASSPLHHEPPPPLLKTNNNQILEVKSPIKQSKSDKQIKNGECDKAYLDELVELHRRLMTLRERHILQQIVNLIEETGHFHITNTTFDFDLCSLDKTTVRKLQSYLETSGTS
rRNA inh HTS OD600: further read-out of rRNA inh HTS, marked with its call; OD600 change, %; measured here: OD600 growth;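 optical density of the mix in the first replicate; 0 = DMSO median and -100 = no signal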
rRNA inh HTS RFP: also measured in rRNA inh HTS; calls as there; RFP signal change, %; measured here: RFP humanized mutant strains;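 first replicate; 0 = DMSO median and -100 = no signal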
* hit, by the source's call; i = inactive; + = active, no number; & = joins results of further samples.

SMILES | rRNA inh HTS | rRNA inh HTS OD600 | rRNA inh HTS RFP | FGF22 binding | MLL AF4-AF9 inh
C[C@@H]1CN([C@@H](C)CO)C(=O)c2cc(NC(=O)C3CC3)ccc2O[C@H]1CN(C)S(=O)(=O)c1cccs1 | -3 | -2 | 1.4 | i | -0.6
CCOC(=O)C1C(=O)CC(=O)C(C(=O)OCC)C1c1ccc(O)cc1 (centres undefined) | 23 | 5 | 6.4 | i | 3.2
CC(C)Oc1ccc2ccccc2c1CNC[C@H]1O[C@@H](n2cnc(C(N)=O)n2)[C@H](O)[C@@H]1O | -1 | 2 | -1.6 | i | -5.2
O=C(OCc1ccccc1)N1CCC2CC1c1cc(N3CCNCC3)ccc12 (centres undefined) | -10 | -15 | 6.5 | i | 12
O=C(O)c1ccc(-n2cc(-c3cc4ccccc4oc3=O)[nH]c2=S)cc1 | 15 | 7 | 1.4 | i | -7.5
C[C@@H]1CN([C@@H](C)CO)C(=O)c2cccc(NC(=O)c3ccncc3)c2O[C@H]1CN(C)Cc1ccc(C(F)(F)F)cc1 | -13 | -9 | 0.1 | i | 1.4
C[C@@H]1CN([C@H](C)CO)C(=O)CCCn2cc(nn2)CO[C@H]1CN(C)C(=O)C1CC1 | 9&-1 | 17&-6 | -0.7&-0.8 | i | -2.8&-2.7
COc1ccccc1S(=O)(=O)N1CC[C@@H]2[C@H]1c1cc(-c3ccccc3)ccc1N[C@@H]2CO | 2 | -4 | 9.0 | i | -3.0
O=C1CCc2cc(Br)ccc2O1 | -9 | 7 | 3.2 | i | 0.0
CC(C)NC(=O)Nc1ccc2c(c1)C(=O)N([C@@H](C)CO)C[C@@H](C)[C@@H](CN(C)Cc1ccc(C(=O)O)cc1)OCCCC[C@@H](C)O2 | 7 | 16 | -1.9 | i | 0.0
N#C[C@@H]1N[C@@H](CO)[C@@H]1c1ccc(C2=CCCC2)cc1 | 1 | 6 | -1.8 | i | -1.7
C[C@@H]1CN([C@H](C)CO)C(=O)c2cc(NC(=O)CCN3CCOCC3)ccc2O[C@@H]1CN(C)S(=O)(=O)c1cccs1 | 1 | 6 | -0.2 | i | -12
O=C(C[C@@H]1C=C[C@H](NC(=O)Nc2ccc3c(c2)OCO3)[C@@H](CO)O1)NCCCN1CCOCC1 | -1 | 0 | -1.3 | i | 0.3
CCC(=O)Nc1ccc2c(c1)C(=O)N(C)[C@@H]1CC[C@@H](CC(=O)NCc3ccccc3Cl)O[C@H]1CO2 | -2 | 0 | -2.1 | i | 0.1
Cc1cccc(-c2ccc([C@H]3[C@H](CO)N4CCCCN(S(=O)(=O)c5cccc(C)c5)C[C@@H]34)cc2)c1 | -36 | -14 | 19 | i | 3.9
C[C@H]1CN([C@@H](C)CO)C(=O)CCCn2nncc2CO[C@H]1CN(C)S(=O)(=O)c1ccc(C#N)cc1 | 2&3 | 8&-8 | -1.9&0.8 | i | -2.5
C[C@@H]1CN([C@@H](C)CO)C(=O)c2cc(NS(=O)(=O)c3ccc(F)cc3)ccc2O[C@@H](C)CCCCO[C@H]1CN(C)C(=O)c1ccncc1 | -3 | 1 | -1.0 | i | -3.1
COCCNC(=O)c1sc(=O)n(Cc2ccc(SC)cc2)c1C | 17 | 8 | 3.1 | i | 1.7
Cc1noc(C)c1S(=O)(=O)Nc1ccc2c(c1)C(=O)N([C@H](C)CO)C[C@H](C)[C@H](CN(C)Cc1ccc(C(=O)O)cc1)O2 | -5 | 4 | -4.4 | i | -2.3
C[C@H]1CN([C@@H](C)CO)C(=O)c2c(c3ccccc3n2C)-c2ccccc2CO[C@H]1CN(C)Cc1ccc(C(F)(F)F)cc1 | 1 | -14 | -2.0 | i | 1.1
CCCC(=O)Nc1ccc2c(c1)OC[C@H](C)N(C(=O)C1CCCC1)C[C@@H](C)[C@H](OC)CN(C)C2=O | 0 | -2 | 0.6 | i | -2.9
O=C(C[C@H]1CC[C@H]2[C@@H](COC[C@H](O)CN2C(=O)c2cccnc2)O1)NCc1ccccc1 | 1 | 15 | 9.0 | i | -2.2
COC(=O)C[C@H]1CC[C@H]2[C@H](COc3ccc(NS(=O)(=O)c4cccc(F)c4)cc3C(=O)N2C)O1 | -7 | -7 | 0.7 | i | -1.2
C[C@@H]1CCCCO[C@@H](CN(C)C(=O)Nc2cccc3ccccc23)[C@@H](C)CN([C@H](C)CO)C(=O)c2cc(NC(=O)NC3CCCCC3)ccc2O1 | 5 | 6 | 2.0 | i | 5.1
Cn1nc(C(C)(C)C)cc1C(=O)N1CCCCC1c1cc(C(=O)Nc2ccccc2Cl)no1 (centres undefined) | -3 | 4 | 3.5 | i | -1.5

A few values from the list.
Under rRNA inh HTS RFP, N#C[C@@H]1N[C@@H](CO)[C@@H]1c1ccc(C2=CCCC2)cc1 has the entry -1.8
Under MLL AF4-AF9 inh, C[C@@H]1CN([C@H](C)CO)C(=O)c2cc(NC(=O)CCN3CCOCC3)ccc2O[C@@H]1CN(C)S(=O)(=O)c1cccs1 has the entry -12
Under rRNA inh HTS OD600, C[C@@H]1CCCCO[C@@H](CN(C)C(=O)Nc2cccc3ccccc23)[C@@H](C)CN([C@H](C)CO)C(=O)c2cc(NC(=O)NC3CCCCC3)ccc2O1 has the entry 6

Continued.
SMILES | rRNA inh HTS | rRNA inh HTS OD600 | rRNA inh HTS RFP | FGF22 binding | MLL AF4-AF9 inh
O=C(N[C@@H]1CC[C@@H](CCNS(=O)(=O)c2ccc(F)cc2)O[C@@H]1CO)c1cccnc1 | -1 | 6 | -0.6 | i | -1.3
C[C@@H]1ON(C)[C@H]2C[C@H]3c4[nH]c5ccc(-c6ccc7c(c6)OCO7)cc5c4CCN3C(=O)[C@@H]12 | -48 | -74 | -17 | i | 12
C[C@@H]1CCCCO[C@H](CN(C)S(=O)(=O)c2cn(C)cn2)[C@@H](C)CN([C@H](C)CO)C(=O)c2cc(NC(=O)c3ccncc3)ccc2O1 | 8&-1 | 12&7 | -3.7&-0.5 | i | -3.6&-0.1
NC(=O)c1c(N)[nH]c(C(=O)c2ccccc2)c1-c1ccncc1 | 10 | 13 | 4.6 | i | 1.2
CC(C)NC(=O)N(C)C[C@@H]1Oc2c(cccc2N(C)C)C(=O)N([C@H](C)CO)C[C@@H]1C | 0 | 9 | -1.4 | i | -12
C[C@H]1CN([C@@H](C)CO)C(=O)CCCn2nncc2CO[C@@H]1CN(C)Cc1cccc(O)c1 | 2 | -1 | -0.6 | i | 0.7&-0.3
CN(C)C(=O)C[C@H]1CC[C@H]2[C@@H](COC[C@H](O)CN2CC2CCCC2)O1 | 0 | 5 | 4.1 | i | -16
Cc1ccc(S(=O)(=O)Nc2ccc3c(c2)C(=O)N([C@@H](C)CO)C[C@H](C)[C@H](CN(C)C(=O)CCCN(C)C)OCCCC[C@@H](C)O3)cc1 | 5 | -2 | 2.7 | i | -1.4
C[C@H](CO)N1C[C@H](C)[C@H](CN(C)C(=O)Nc2cccc3ccccc23)Oc2ccc(NC(=O)Cc3ccccc3)cc2CC1=O | 2 | -9 | 0.5 | i | 2.8
Cc1ccc(C=C(C#N)C(=O)c2ccccc2)cc1 | -6 | -11 | 12 | i | -0.1
O=C1[C@@H](c2ccccc2)[C@@H](c2ccccc2)N1c1ccccc1 | -7 | -3 | -5.3 | i | -1.3
CCC(=O)N1[C@H](CO)[C@@H]2c3ccccc3N(C(=O)c3ccccc3F)C[C@@H]21 | 2 | 11 | -3.0 | i | -1.5
CCC(=O)N1CC2(CCN(C(C)=O)CC2)c2c([nH]c3cc(OC)ccc23)[C@H]1CO | 3 | -2 | -0.4 | i | -2.7
CCS(=O)(=O)Nc1ccc2c(c1)C(=O)N(C)[C@H]1CC[C@H](CC(=O)NCc3ccccc3F)O[C@H]1CO2 | 2 | 1 | -0.7 | i | -20
O=C([C@H]1[C@H](CO)[C@H]2Cn3c(ccc(-c4cccnc4)c3=O)[C@H]2N1CCC(F)(F)F)N1CCOCC1 | 2 | 0 | -1.8 | i | -2.6
CCCN1C[C@H](C)[C@H](OC)CN(C)C(=O)c2ccc(NC(=O)CC(F)(F)F)cc2OC[C@H]1C | 0 | 3 | 0.5 | i | -2.7
CS(=O)(=O)Nc1ccc2c(c1)[C@@H]1C[C@@H](CC(=O)NCc3ccccn3)O[C@H](CO)[C@@H]1O2 | 6 | 9 | 1.6 | i | -2.1
CCC(=O)N1[C@@H](CO)[C@@H]2c3ccccc3N(C(=O)NC(C)C)C[C@@H]21 | 1 | -6 | -3.0 | i | -7.4
C[C@H]1CN([C@@H](C)CO)C(=O)Cc2cc(NC(=O)Cc3ccccc3)ccc2O[C@H]1CN(C)Cc1ccc(Cl)c(Cl)c1 | 5 | 2 | 0.6 | i | 0.3
COc1ccc(Sc2ccc(NC(=O)c3cccc(Cl)c3)cc2C#N)cc1 | -1 | -6 | -0.3 | i | 2.7
C[C@H](CO)N1C[C@H](C)[C@@H](CN(C)C(=O)Nc2cccc3ccccc23)Oc2c(NS(=O)(=O)c3cccs3)cccc2C1=O | -2 | 2 | -1.9 | i | 1.1
CCOC(=O)C1(C)CCCCCN1C(=O)c1ccc(Cl)nc1 (centres undefined) | 5 | 8 | 1.0 | i | -2.4
O=C(Cc1cccnc1)N[C@@H]1CC[C@@H](CCn2cc(-c3ccccc3F)nn2)O[C@@H]1CO | 0 | -1 | -2.1 | + | 1.1
C[C@@H]1CCCCO[C@@H](CN(C)Cc2ccc(C(=O)O)cc2)[C@@H](C)CN([C@@H](C)CO)C(=O)c2cc(NC(=O)Nc3ccc4c(c3)OCO4)ccc2O1 | 3 | 3 | 0.8 | i | 3.9
NC(COCc1ccccc1)c1csc(Nc2ccc(C(=O)NCCO)cc2)n1 (centres undefined) | 2 | 8 | -1.7 | i | 2.1

Next records follow:
SMILES | rRNA inh HTS | rRNA inh HTS OD600 | rRNA inh HTS RFP | FGF22 binding | MLL AF4-AF9 inh
COc1ccc(S(=O)(=O)Nc2ccc3c(c2)C(=O)N([C@@H](C)CO)C[C@@H](C)[C@@H](CN(C)C(=O)c2ccccc2)OCCCC[C@H](C)O3)cc1 | -1 | -10 | 0.1 | i | 0.2
COc1cccc(S(=O)(=O)N(C)C[C@H]2Oc3ncc(C#CCN(C)C)cc3C(=O)N([C@@H](C)CO)C[C@H]2C)c1 | 4 | 10 | 0.7 | i | 7.5
COc1ccccc1-c1ccc([C@H]2[C@H](C#N)N[C@@H]2CO)cc1 | 2 | 9 | -1.1 | i | -0.8
C[C@H]1CCCCO[C@H](CN(C)C(=O)NC2CCCCC2)[C@@H](C)CN([C@@H](C)CO)C(=O)c2cc(NS(=O)(=O)c3cccs3)ccc2O1 | -2 | -5 | 6.8 | i | -0.4
C[C@H](CO)N1C[C@H](C)[C@@H](CN(C)S(=O)(=O)c2ccc(Cl)cc2)Oc2c(NC(=O)c3ccc(-c4nccs4)cc3)cccc2C1=O | -5 | -9 | 1.9 | i | 2.6
Cc1noc(C)c1S(=O)(=O)N(C)C[C@H]1OCCCC[C@H](C)Oc2ccc(NC(=O)Nc3ccc(F)cc3)cc2C(=O)N([C@H](C)CO)C[C@@H]1C | 2 | -1 | 2.0 | i | -1.3
Cn1cnc(S(=O)(=O)N2CCCCN3[C@H](CO)[C@H](c4ccc(-c5cccc(F)c5)cc4)[C@H]3C2)c1 | -2 | -5 | -3.5 | i | -1.9
CCc1nc(C)cn1S(=O)(=O)c1ccc2c(c1)OCCO2 | 5 | 3 | -0.4 | i | 1.9
COc1cccc(NC(=O)N2CC(=O)N3[C@H](C2)[C@@H](c2ccc(C#CCC4CCCC4)cc2)[C@@H]3CO)c1 | 3 | 17 | 2.3 | i | 1.9
C[C@@H]1CCCCO[C@@H](CN(C)S(=O)(=O)c2ccc(Cl)cc2)[C@H](C)CN([C@H](C)CO)C(=O)c2cc(NS(=O)(=O)c3ccc(F)cc3)ccc2O1 | -6 | -12 | -2.7 | i | -3.2
COc1ccc(OC(=O)N(C)C[C@@H]2OCc3cn(nn3)CCCC(=O)N([C@H](C)CO)C[C@H]2C)cc1 | -1&22 | 4&10 | 0.0&3.8 | i | 1.8&-0.8
N#C[C@H]1N[C@H](CO)[C@H]1c1ccc(C#Cc2cccnc2)cc1 | -2 | 8 | 0.6 | i | -4.0
O=S1(=O)N[C@@H](Cc2ccccc2)COc2cccc(N3CCC[C@@H]3CO)c21 | -4 | -14 | -3.5 | i | -1.2
CCNC(=O)C[C@H]1CC[C@H]2[C@@H](COC[C@H](O)CN2C(=O)C2CCCC2)O1 | 2 | 3 | 13 | i | -2.6

Compound profiles (already shown). Order of screens: rRNA inh HTS, rRNA inh HTS OD600, rRNA inh HTS RFP, FGF22 binding, MLL AF4-AF9 inh
`CCc1nc(C)cn1S(=O)(=O)c1ccc2c(c1)OCCO2` reads 5, 3, -0.4, i, 1.9
`COc1ccccc1-c1ccc([C@H]2[C@H](C#N)N[C@@H]2CO)cc1` reads 2, 9, -1.1, i, -0.8
`O=S1(=O)N[C@@H](Cc2ccccc2)COc2cccc(N3CCC[C@@H]3CO)c21` reads -4, -14, -3.5, i, -1.2

This is a subset; the hit share may differ from the screen's.
